Screens (PubChem)
NS1 inh – influenza NS1 inhibition. S. cerevisiae slowed by influenza A NS1, growth recovery by OD600. Potency, µM (top dose mostly 46.1 µM), without a hit: at the highest dose activity, positive = more growth. 0.4% of 270,000 active; active means well fitted rising curve with a large enough effect; inconclusive means small, poorly fitted or top-dose-only effect; inactive means no such curve, though single readings can be large or run the other way; also: nearly all actives have a fitted effect of over 50% in size
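Read-out: OD600 growth recovery of NS1-expressing budding yeast. Cells grown overnight at 30C in -URA glucose medium, washed, resuspended and diluted 1:100 in 2% galactose assay medium, pH 6.0. Same strain lacking NS1 served as positive control.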
Cruzain inh Det – cruzain (T. cruzi) inhibition with detergent; P25779; purified cruzain, Z-FR-AMC fluorescence, 0.01% Triton; Potency, µM, inactives show max response, negative = inhibition, hits mostly inhibitors; 0.43% of 200,000 active;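 also: plate controls were neutral wells for no effect and buffer without enzyme for full effect; nearly all actives have a fitted effect of over 40% in size; top concentration of the series not given in the record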
Target sequence (P25779 123-467 limits assumed): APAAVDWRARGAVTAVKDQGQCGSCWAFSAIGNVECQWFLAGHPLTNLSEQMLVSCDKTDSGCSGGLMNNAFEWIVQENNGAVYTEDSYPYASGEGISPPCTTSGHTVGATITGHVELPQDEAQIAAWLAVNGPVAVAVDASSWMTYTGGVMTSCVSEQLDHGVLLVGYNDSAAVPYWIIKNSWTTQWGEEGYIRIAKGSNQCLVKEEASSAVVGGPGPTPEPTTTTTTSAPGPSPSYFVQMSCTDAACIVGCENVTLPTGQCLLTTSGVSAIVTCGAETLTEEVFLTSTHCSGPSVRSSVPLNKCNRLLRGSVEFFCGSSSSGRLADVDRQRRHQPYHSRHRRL
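Detergent-containing run (0.01% Triton X-100) in acetate buffer pH 5.5 with 5 mM DTT: enzyme at 1.5 nM final, 15 min compound preincubation at room temperature, then 2 uM Z-FR-AMC substrate. Activity taken as 60 s fluorescence increase at 360/450 nm.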
Marburg entry inh – blocks Marburg virus binding to or entry into cells; 1.8% of 300,000 active; Marburg virus pseudotyped entry inhibition, cell reporter; control for the full effect not named in the record; about a third of the inactives were read at about 46 µM; Potency, µM (top dose mostly 37.8 µM), for inactives: at the highest dose activity change, negative = inhibition, usual class: inhibitors; AID 540276; active = well fitted inhibition curve with a large enough effect; inconclusive = small, poorly fitted or top-dose-only effect, or effect the other way; inactive = flat fitted curve, though single readings scatter; tested in HEK293 cells; about a fifth of its hits are not listed in these tables; also: % is scaled to controls: 0 for no effect and ±100 for the full control effect; luciferase read-out
2A StopGo – lowers the luciferase signal of an FMDV 2A StopGo reporter; human cells with a luciferase reporter of 2A StopGo recoding; control for the full effect not named in the record; Potency, µM (doses to about 57.9 µM), without a hit: at the highest dose signal change, negative = less light; 1.2% of 410,000 active; AID 1159524; active = well fitted falling curve with a large enough effect; inconclusive = small, poorly fitted or top-dose-only effect; inactive = no such curve, though single readings can be large or run the other way; tested in HEK293T cells; also: % is scaled to controls: 0 for no effect and ±100 for the full control effect; nearly all actives have a fitted effect of over 45% in size; luciferase light after 4 h
RE007 growth inh – less growth of the S. pombe RE007 Vpr strain. S. pombe RE007 Vpr strain, BacTiter-Glo ATP luminescence, 24 h; control for the full effect not named in the record. Potency, µM (titrated, usually from 92.2 µM), for inactives: at the top dose activity change, negative = less growth. 0.21% of 360,000 active. AID 651644; active = well fitted falling curve with a large enough effect; inconclusive = small, poorly fitted or top-dose-only effect; inactive = no such curve, though single readings can be large or run the other way;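 also: % is scaled to controls: 0 for no effect and ±100 for the full control effect; nearly all actives have a fitted effect of over 50% in size; the assay follows cell death caused by Vpr and the record does not say whether a fall means rescue or toxicity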
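Fission yeast RE007 carrying one integrated HIV-1 vpr copy, seeded at OD 0.01 in PMG+AL medium with 23 nL pinned compound. Grown 24 h at 30 degrees; viability read by BacTiter-Glo luminescence after 5 min.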
LASV entry inh – Lassa virus entry inhibition; 1.2% of 300,000 active; Lassa virus pseudotype entry inhibition, cell reporter; control for the full effect not named in the record; Potency, µM (titrated, usually from 37.9 µM), without a hit: top-dose activity change, negative = inhibition, actives largely listed as inhibitors; active means well fitted inhibition curve with a large enough effect; inconclusive means small, poorly fitted or top-dose-only effect, or effect the other way; inactive means flat fitted curve, though single readings scatter; tested in HEK293 cells; also: % is scaled to controls: 0 for no effect and ±100 for the full control effect; nearly all actives have a fitted effect of over 50% in size; luciferase read-out
Cruzain inh noDet – blocks cruzain activity in detergent-free assay. purified cruzain, Z-FR-AMC fluorescence, no detergent. Potency, µM, for inactives: max response, negative = inhibition, usual class: inhibitors. 2.3% of 200,000 active. AID 1476;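 also: plate controls were enzyme without inhibitor for no effect and buffer without enzyme for full effect; nearly all actives have a fitted effect of over 40% in size; top concentration of the series not given in the record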
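Purified cruzain at 1.5 nM, pre-incubated 15 min with compound at room temperature in 100 mM sodium acetate pH 5.5, 5 mM DTT, 0.00005% Triton X-100. Reaction started with 2 uM Z-FR-AMC; AMC fluorescence increase over 60 s gives rate.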
SARS PLpro yeast – blocks SARS-CoV papain-like protease in a yeast assay; S. cerevisiae expressing SARS-CoV PLpro, growth rescue; control for the full effect not named in the record; Potency, µM (series often up to 32.9 µM), inactives show top-dose activity, positive = growth rescue; 0.19% of 330,000 active; active means well fitted rising curve with a large enough effect; inconclusive means small, poorly fitted or top-dose-only effect; inactive means no such curve, though single readings can be large or run the other way; also: 0% is about no effect; nearly all actives have a fitted effect of over 55% in size; growth read by luminescence after 48 h
Active calls of the source: *; ? = inconclusive; . = no result given; & = joins results of further samples; [ ] = another dose, or the depositor's remark. Unless noted, calls follow the shape of the dose curve; as a rule, active = well fitted curve in the direction sought with a large enough effect; inconclusive = small, poorly fitted or top-dose-only effect, or another doubt; inactive = no such curve, though single readings can be large; an effect the other way counts as inactive or inconclusive. Potency is read from the fitted curve at half-maximal effect.

SMILES	NS1 inh	Cruzain inh Det	Marburg entry inh	2A StopGo	RE007 growth inh	LASV entry inh	Cruzain inh noDet	SARS PLpro yeast
CC(=O)Nc1ccc(S(=O)(=O)N[C@@H](C)C(=O)OCc2ccc(Cl)cc2)cc1	-6%	-3.4%	-5%	-11%	-6%	-6%	-9%	-7%
O=C(c1ccc(N2CCOCC2)cc1[N+](=O)[O-])N1CCOCC1	.	.	1%[46.1 µM]	-2%	-4%	-5%[46.1 µM]	.	0%
CC(=O)Nc1ccc(N2CCc3c(C)c(C#N)c4nc5ccccc5n4c32)cc1	16%	-1.5%	-38%	.	.	?	?	-8%
O=C(NC(=S)Nc1ccc(N2CCOCC2)cc1)c1ccccc1	.	.	?	22%	3%	-3%	.	0%
COc1ccc(C(OC(=O)c2ccco2)C(=O)NC(C)(C)C)cc1 (stereo not drawn)	0%	.	-20%[46.1 µM]	3%	7%	9%	.	-1%
Cc1ccc(S(=O)(=O)N/N=C/c2cc([N+](=O)[O-])ccc2O)cc1[N+](=O)[O-]	.	.	?	56%[activator]	-16%	3%	.	-3%
CCC(=O)c1ccc(CCCCCC(=O)O)s1	-53%	-1.0%	47%[46.1 µM]	27%	-9%	26%	-4%	-1%
O=C(COC(=O)CCCN=C1NS(=O)(=O)c2ccccc21)NC(=O)NC1CCCC1	.	.	5%[46.1 µM]	-1%	4%	-6%	.	-3%
CCN(CC(=O)NC(C)C)C(=O)C(CCSC)NC(=O)c1ccccc1OC (stereo not drawn)	.	.	12%[46.1 µM]	-2%	1%	12%	.	2%
COc1ccc(-n2c(=O)c3c4c(sc3n(CC(=O)N3CCCCC3C)c2=O)CCC4)c(OC)c1 (stereo not drawn)	.	-5.0%	5%[46.1 µM]	-12%	.	1%[46.1 µM]	17%	.
COc1ccc(CNC(=O)c2ccc(NC(=O)N3CCSc4ccccc43)cc2)cc1	.	-6.2%	6%[46.1 µM]	-18%	.	-4%[46.1 µM]	-25%	.
O=C(CCc1ccccc1)Nc1ccnn1C1CCN(C/C=C/c2ccccc2)CC1	13%	.	.	-26%	-23%	.	.	2%
CC(C)Cn1c(=O)c2sccc2n2c(CCCC(=O)NC3CCN(Cc4ccccc4)CC3)nnc12	-30%	.	-2%[46.1 µM]	-5%	-8%	-2%[46.1 µM]	.	-1%
Cc1ccc(N2CC(NC(=O)C(=O)c3c(C)[nH]c4ccccc34)CC2=O)cc1C (stereo not drawn)	.	.	30%	-8%	-8%	4%	.	-1%
CCOC(=O)Nc1nnc(CCc2ccccc2)s1	-14%	2.1%	9%	-8%	-5%	0%	-1%	3%
C=Cn1cc[n+](CC(=O)c2ccc(OC)c(OC)c2)c1	2%	.	.	-15%	-9%	.	.	2%
COc1cc2cc(-c3ccc(OC)c(OC)c3C)nc(N)c2cc1OC	.	.	?	-10%	-9%	?	.	.
O=C(Nc1ccccc1Cl)Nc1cccnc1Cl	.	.	-18%[46.1 µM]	-16%	6%	2%[46.1 µM]	.	2%
O=C(COc1ccc(Cl)cc1)OCc1ccc(Cl)cc1	.	.	13%[46.1 µM]	0%	-3%	10%[46.1 µM]	.	.
COc1ccc(NS(=O)(=O)c2ccc(-c3n[nH]c(=S)n3Cc3ccccc3)cc2)cc1	12%	.	.	-17%	-7%	.	.	-2%
COc1cccc(CNC(=O)C2CCC(=O)N(CC3CCCCC3)C2)c1OC (stereo not drawn)	-1%	.	?	16%	2%	-4%	.	2%
O=C1C[C@@H](c2ccc(O[C@@H]3O[C@H](CO)[C@@H](O)[C@H](O)[C@H]3O)cc2)Oc2cc(O)ccc21	3%	7.1%	?	24%	5%	1%	-14%	1%
O=C(CSc1nnc(C2COc3ccccc3O2)o1)NC1CCCCC1 (stereo not drawn)	-21%	3.5%	.	18%	-11%	.	1%	4%
COc1ccc(OCC(=O)OCc2cc(=O)n3nc(C4CCCCC4)sc3n2)cc1	.	-3.2%	.	13%	.	-7%[46.1 µM]	-2%	.
CC(=O)N(C)c1ccc(NC(=S)NC(=O)/C=C/c2ccco2)cc1	5%	.	.	18%	10%	.	.	1%
COc1ccc(C)cc1NC(=O)c1nnn(CCc2ccccc2)c1N	2%	-4.7%	.	-27%	1%	.	4%	-7%
c1ccc(-c2cn(C[C@H]3CC[C@@H]([C@@H]4CC[C@H](Cn5cc(-c6ccccn6)nn5)O4)O3)nn2)nc1	0%	.	.	8%	3%	.	.	25%
O=C(O)c1ccc(S(=O)(=O)N(Cc2cccs2)CC2CCCO2)cc1 (stereo not drawn)	?	.	.	18%	10%	.	.	0%
Cc1ccc(C(=O)Nc2nc(=O)n(C(=O)C3CC3)s2)cc1	-15%	-3.1%	6%	-21%	?	9%	3%	-21%
Cc1cccc(-n2nnnc2SCC(=O)NCCN2C(=O)CSC2=O)c1	-7%	9.4%	14%	-1%	22%	?	-3%	2%
CSc1nc(Sc2ccccc2Cl)c2ccccc2n1	-4%	-6.7%	-28%	-16%	1%	?	3%	-18%
COc1ccc(OC)c(NC(=O)CN2CCCN(Cc3ccccc3Cl)S2(=O)=O)c1	.	0.4%	.	-6%	.	11%[46.1 µM]	9%	.
Cc1cc(C)c(C(=O)CSc2nc(C)cc(=O)[nH]2)c(C)c1	18%	.	2%	8%	18%	9%	.	-3%
CCC(C)N(C(=O)c1csnn1)C(C(=O)NCc1ccc(F)cc1)c1ccccc1F (stereo not drawn)	-3%	.	-21%[46.1 µM]	0%	-12%	1%	.	-6%
O=C(CN1C(=O)CCS(=O)(=O)c2ccccc21)Nc1ccc2c(c1)OCCO2	5%	0.3%	0%&0%	-2%	3%	-7%	2%	0%
CNC(=O)c1c(NC(=O)C2=COCCO2)sc(C)c1C	.	.	-6%	19%	-5%	-2%[46.1 µM]	.	-15%
Cc1cccc(Nc2nnc(SCC(=O)Nc3ccc(C(=O)O)cc3)s2)c1	.	.	-26%[46.1 µM]	25%	-18%	?	.	-3%
CCc1c(N)nc(N)nc1Nc1ccccc1Cl	.	.	-26%[46.1 µM]	-16%	-21%	-13%[46.1 µM]	.	.
CC1(C)Oc2ccc3ccc(=O)oc3c2/C(=N/O)C1=O	2%	.	.	-6%	17%	.	.	1%
Fc1ccc(C(c2nnnn2Cc2cccs2)N2CCN(c3ccccc3)CC2)cc1 (stereo not drawn)	27%	-4.2%	?	0%	-5%	?	4%	-5%
COCCCn1c(=O)c2sccc2n(Cc2cccc(C)c2)c1=O	31%	.	.	-14%	10%	.	.	4%
CCCOc1nc2c(c(=O)n(C)c(=O)n2C)n1CCC	-3%	4.4%	18%	.	-3%	3%	4%	11%
CC(C)CNS(=O)(=O)c1ccc2c(c1)OCCO2	-5%	6.1%	8%	77%[activator]	7%	1%	1%	16%
COc1cccc(CNS(=O)(=O)c2ccc3c(c2)oc(=O)n3C)c1	4%	.	6%	17%	9%	12%	.	3%
CC(=O)c1c(C)oc2c1cc(NS(=O)(=O)c1ccc(Cl)c(C)c1)c1ccccc12	.	-4.1%	?	-14%	.	?	-25%	.
Cc1ccc(S(=O)(=O)N2CCC(C(=O)OCc3ccccc3)CC2)cc1C	.	.	9%[46.1 µM]	-22%	-1%	-9%	.	-3%
COc1ccccc1N1CCN(C(=O)C(=O)c2c[nH]c3ccccc23)CC1	-19%	.	.	1%	12%	.	.	1%
COC(=O)CCCC1=CC2=CC(=O)C(C)(OC(=O)c3cccs3)C(=O)C2=CN1Cc1ccco1 (stereo not drawn)	7%	.	-30%&-30%[14.2 µM]	-11%	-13%	.	.	2%
CCN(CC)C(=O)CSc1nc(-c2ccc(C)cc2)nc2c1Cc1c(CO)cnc(C)c1O2	.	-6.3%	.	?	.	0%[46.1 µM]	?	.
COc1cccc(NC(=O)c2ccc3c(c2)N(CC(=O)N2CCOCC2)C(=O)C(C)(C)O3)c1	-4%	.	-25%[46.1 µM]	-15%	1%	?	.	1%
Cc1cccc2c1nc(-c1ccccc1)n1nnnc21	0%	-4.1%	-2%	-1%	6%	-8%	-1%	1%
CCCN(CC(=O)Nc1ccccc1OC)C(=O)c1nc2nc(C)ccn2n1	.	.	12%	9%	-3%	3%	.	-1%
O=S(=O)(c1cc(Cl)ccc1Cl)N1CCCC1	-5%	-1.7%	0%	-8%	-2%	1%	-2%	-3%
NC(=O)N/N=C/c1cccc(OCc2ccc(F)cc2)c1	.	.	-17%[46.1 µM]	8%	7%	3%	.	-1%
COc1ccc(-c2[nH]ncc2CN2CCN(C(=O)c3cccs3)CC2)c(F)c1	5%	.	?	?	-13%	-14%	.	1%
CCC(=O)Nc1ccc(C2=Nn3c(nnc3C(C)C)SC2)cc1	1%	.	.	-14%	-4%	.	.	1%
CCOCCCNC(=O)C1CCCN1C(=O)Nc1ccccc1[N+](=O)[O-] (stereo not drawn)	7%	.	-9%[46.1 µM]	1%	4%	-22%	.	1%
C/C(=N\NC(=O)CNC(=O)c1ccccc1Br)c1ccco1	-3%	.	6%[46.1 µM]	-5%	1%	20%	.	2%
CC1(C(=O)NCCN2CCOCC2)C=CCN1C(=O)c1ccccc1 (stereo not drawn)	-19%	2.7%&1.4%	1%	81%[activator]	-4%	-1%	-2%&-8%	2%
CCCNC(=O)c1ccc(-n2c(-c3ccccc3)cc3c2CCCCC3)cc1	.	-4.4%	.	-4%	.	-23%[46.1 µM]	7%	.
Later entries
SMILES	NS1 inh	Cruzain inh Det	Marburg entry inh	2A StopGo	RE007 growth inh	LASV entry inh	Cruzain inh noDet	SARS PLpro yeast
CCOC(=O)CNC(c1ccccc1)c1cc(Br)ccc1NC(=O)c1ccc(Cl)cc1 (stereo not drawn)	.	-2.1%	.	?	.	?	-25%	.
Cc1ccc(/C=N/NC(=O)Cn2nnc(N)n2)cc1	7%	.	.	13%	3%	.	.	0%
O=C(CN1CCN(c2cccc(Cl)c2)CC1)Nc1ccc([N+](=O)[O-])cc1C(=O)Nc1ccccc1F	25%	-2.1%	3%	-21%	3%	-17%	?	-1%
O=c1oc2cc(Cl)ccc2n1CSc1nc2ccccc2s1	-3%	-12%	-35%	-10%	-8%	?	1%	-11%
